Source: PubChem
VACV E9 pol inh = blocks vaccinia virus processive DNA synthesis. in vitro processive DNA synthesis, absorbance read-out; stronger effect = lower value; some inactives read as strong as hits. normalized absorbance, % (test concentration not listed). actives 0.94% (n = 46,000). AID 493162;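 active means replicate mean up to 90% and picked by the depositor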;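 further: 100% = median of the test wells of a plate; 100 nL library stock went into each well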
* hit, by the source's call. Only part of the results is shown; rates above refer to the full screens.

Molecule	VACV E9 pol inh
COc1ccc(-c2nc(CSCC(=O)N(C)Cc3ccccc3)c(C)o2)cc1OC	102
CC(C)c1cccc2c1OC(C(C)C)C(=S)N2CC(=O)O (stereo not given)	76
O=C(C(Cc1ccccc1)n1cccc1)N1CCCC1 (stereo not given)	98
CCOC(=O)c1c(C)c(C(=O)Nc2ccc(C(C)C)cc2)c(C)n1C	103
c1ccc(NCn2nnc3ccccc32)cc1	84
CC1=C(CC(=O)O)c2cc(F)ccc2/C1=C\c1ccc(S(C)=O)cc1 (stereo not given)	100
O=C(CC(NCCC1=CCCCC1)C(=O)O)Nc1ccccc1 (stereo not given)	98
CCOC(=O)c1[nH]c(CBr)c(C(=O)OCC)c1C	107
COC(=O)c1ccc(NS(=O)(=O)c2cccc3cccnc23)cc1	100
Cc1cc(NC(=O)Cc2ccccc2)ccc1O	102
COc1ccc(N=Cc2ccc3c(c2)OCCO3)cc1	101
Cc1cccc(OCC(=O)N2CCCc3ccccc32)c1	100
O=C(c1cc(=O)c2ccccc2o1)N1CCc2ccccc21	99
O=C(CSc1ccc(Br)cc1)c1ccc(Cl)s1	98
COCc1nc2c([nH]1)c(=O)n(C)c(=O)n2CC(C)C	99
Cc1ccccc1CNCCc1c[nH]c2ccccc12	95
Cc1[nH]c2ccccc2c1CCN1C(=O)CCC1=O	102
Cc1ccc(NC(=O)CC(NCc2ccco2)C(=O)O)cc1C (stereo not given)	96
CCc1ccc(-c2csc(Nc3ccc(S(=O)(=O)Nc4cc(OC)nc(OC)n4)cc3)n2)cc1	100
O=C1Nc2cc(C(=O)N3CCCC3)ccc2S/C1=C\c1ccccc1	94
NNc1cccc(C(F)(F)F)c1	103
Nc1oc(-c2ccc(Cl)cc2)cc1C(=O)c1ccc(Cl)cc1	100
CCN1/C(=C/C2=CC(=O)CC(C)(C)C2)Sc2ccccc21	98
O=C(O)CCCC(=O)Nc1ccc(Br)cc1	92
CCC(SC1=Nc2ccccc2C2=NC(c3ccccc3)C(=O)N12)C(=O)NCc1ccc(C)cc1 (stereo not given)	99

Already shown: entries from further up.
Molecule	VACV E9 pol inh
COc1ccc(-c2nc(CSCC(=O)N(C)Cc3ccccc3)c(C)o2)cc1OC	102
CC(C)c1cccc2c1OC(C(C)C)C(=S)N2CC(=O)O (stereo not given)	76

Molecules listed so far with a Cl atom (2):
Molecule	VACV E9 pol inh
O=C(CSc1ccc(Br)cc1)c1ccc(Cl)s1	98
Nc1oc(-c2ccc(Cl)cc2)cc1C(=O)c1ccc(Cl)cc1	100

Following part:
Molecule	VACV E9 pol inh
Nc1nc2ccccc2cc1S(=O)(=O)c1ccccc1	88
COc1ccc(C(=O)NCCn2cc(SC(C)c3ccccc3)c3ccccc32)cc1 (stereo not given)	105
Nc1cc(C(=O)O)ccc1NCCCN1CCOCC1	101
CCOC(=O)c1c[nH]c2cc(Cl)cc(Cl)c2c1=O	99
COc1ccc(Nc2ncnc3nc[nH]c23)cc1	100
CC(=O)Nc1nnc(-c2ccc3c(c2)CCCC3)o1	101
Cc1nc(NCCCn2ccnc2)c2ccccc2n1	96
CC1(C)N=C(Nc2ccccc2)SC1=N	98
Cc1ccc(NC(=O)N2CCN(C3c4ccccc4-c4ccccc43)CC2)cc1Cl	83
O=C(/C=C/c1ccccc1)N1CCC(c2ccccc2)C1 (stereo not given)	100
CC(C)(C)c1cc(/C=N/n2c(N)nc3ccccc32)cc(C(C)(C)C)c1O	105
O=C1NCCN1C(=O)C(c1ccccc1)c1ccccc1	100
CN1CCCC1=Nc1ccccc1C#N	102
CCOc1cc(/C=C2/SC(=S)N(c3ccc4c(c3)OCO4)C2=O)ccc1O	104
O=S(=O)(c1ccccc1)C1(S(=O)(=O)c2ccccc2)CCCC1	93
Cc1cc(=O)[nH]c(SCC(=O)c2ccccc2)n1	98
O=C(O)C1CC=CCC1C(=O)Nc1ccc(Cl)cc1 (stereo not given)	100
CCC1C(=O)C(CC)C(c2ccccc2)NC1c1ccccc1 (stereo not given)	102
COC(=O)c1sc2ccccc2c1NC(=O)Cc1ccccc1	101
O=C1CC(/C=C/c2ccc(Cl)cc2)=Nc2ccccc2N1	98
N#CCc1[nH]nc(N)c1C#N	107
CC(C)c1ccc(OCCN2CCNCC2)cc1	100
COc1ccc(NC(c2ccc(C)cc2)n2ncc3c(=O)n(C)c4ccccc4c32)cc1 (stereo not given)	99
CC1=C(C(=O)OC2CCCC(C)C2)C(c2ccccc2Cl)NC(=O)N1C (stereo not given)	106
O=C(Cn1ccnc1)c1ccc(Cl)cc1Cl	101
CC1CCCC(NC(=O)c2ccc(N3CCCC3=O)cc2)C1C (stereo not given)	101
O=C1c2ccccc2NC(c2ccccc2Cl)N1c1ccc(F)cc1 (stereo not given)	100
COc1cccc(/C=C2/Oc3ccccc3N(CC(=O)NCC3CCCO3)C2=O)c1 (stereo not given)	88
CC(C)(C)OC(=O)N1CCCC[C@@H]1C(=O)O	93
CCOc1ccc(CC(=O)NCCn2c(C)cc3ccccc32)cc1	96
COc1ccc(C(=O)Nc2sc3c(c2C#N)CCC3)cc1OC	105
O=C(COC(=O)C1CCN(S(=O)(=O)c2ccc3ccccc3c2)CC1)c1ccccc1	100
O=C1CCC/C1=C1\SCC(=O)N1c1ccccc1	107
CCN(C(=O)CN1C(=O)c2ccccc2S1(=O)=O)c1cccc2ccccc12	95
CCCSc1nnc(CSc2ncccn2)n1-c1ccccc1	89
COC(=O)c1c(NC(=O)Nc2ccccc2)sc2c1CCCC2	99
OCCSc1nc2ccccc2n1Cc1ccccc1	99
CC1(C)CC(=O)C(C(NC(=O)c2ccccc2)(C(F)(F)F)C(F)(F)F)=C(O)C1	100
CC(C)NC(=O)Oc1cccc(Cl)c1	97
Cc1cc(C)nc(SCC(=O)NN)n1	101
COC(=O)C1=C(N)N(c2ccc(C)cc2)C2=C(C(=O)CCC2)C1c1ccc(OC)cc1 (stereo not given)	99
O=C1c2ccccc2-c2nn(C(=O)c3ccco3)c3cccc1c23	100
c1ccc(Cn2c3ccccc3n3nc(-c4ccccc4)nc23)cc1	100
O=C1C(O)=C(Cc2ccccc2)CN1Cc1ccccc1	100
O=c1[nH]c2ccc(Cl)cc2c(=O)n1Cc1ccccc1	104
CCn1c(=NC(=O)C2CC2)sc2cc(Cl)ccc21	71
CCc1ccc(/C=C2/C(=O)N(c3ccccc3)N=C2C)cc1	92
COc1ccc(C(=O)NC(CO)(CO)CO)cc1OC	101
O=C(NCc1ccc(-c2cccs2)s1)NC(=O)c1ccccc1	98
CCCCC(O)(c1ccc(OC)cc1)C(CN1CCOCC1)c1ccccc1 (stereo not given)	96

Structural class, the compounds so far containing two or more sulfur atoms
Molecule	VACV E9 pol inh
O=C(CSc1ccc(Br)cc1)c1ccc(Cl)s1	98
CCc1ccc(-c2csc(Nc3ccc(S(=O)(=O)Nc4cc(OC)nc(OC)n4)cc3)n2)cc1	100
CCOc1cc(/C=C2/SC(=S)N(c3ccc4c(c3)OCO4)C2=O)ccc1O	104
O=S(=O)(c1ccccc1)C1(S(=O)(=O)c2ccccc2)CCCC1	93
CCCSc1nnc(CSc2ncccn2)n1-c1ccccc1	89
O=C(NCc1ccc(-c2cccs2)s1)NC(=O)c1ccccc1	98

Next results follow.
Molecule	VACV E9 pol inh
CCC(C)NC(=O)CSc1nc2ccsc2c(=O)n1-c1cccc(Cl)c1Cl (stereo not given)	100
O=C(Cc1noc2ccccc12)N1CCCC1	103
CN(C(=O)COC(=O)c1n[nH]c2ccccc12)c1ccccc1	100
CCOC(=O)c1cnc(-c2cccs2)nc1Nc1ccc(C)cc1	100
O=C(NCc1ccc2c(c1)OCO2)Oc1ccccc1	101
O=C(CSc1nc2c(c(=O)[nH]1)CN(Cc1ccccc1)CC2)NCc1ccccc1	104
CN(C)c1ccc(-c2nc3ccc4ccccc4c3c3c2CCC3)cc1	100
COc1ccc(C(=O)Cn2c(SC)nc3ccccc32)cc1	98
COc1cccc(CN2c3cccc4cccc(c34)S2(=O)=O)c1	102
Cc1nc(C(F)(F)F)c(-c2ncn[nH]2)s1	105
O=C(/C=C/c1ccccc1)C1CC1	100
CC1CN(C(=O)COC(=O)c2ccc(I)cc2)CC(C)O1 (stereo not given)	102
CN(C)CCC(=O)c1ccccc1	101
O=C(COC(=O)Cc1c(Cl)cccc1Cl)NCc1ccco1	102
O=C(CSc1ncnc2ccccc12)N1CCc2ccccc21	92
O=C(NCCc1ccccc1)c1ccc(C(=O)c2ccccc2)o1	101
Cc1nc(C)nc(N(Cc2ccccc2)Cc2ccccc2)n1	95
CCOc1ccc(-c2cc(NC(=O)Nc3ccc(F)cc3)c(C(=O)OC)s2)cc1	98
O=C1C2C3C=CC(C3)C2C(=O)N1Cc1ccco1 (stereo not given)	100
COC(=O)c1cc2occc2n1CC(=O)N(C)C1CCCCC1	103
CCOC(=O)C1=C(C)NC(C(=O)NCc2cccc(OC)c2)CS1 (stereo not given)	100
CC1CN(C(=O)Nc2ccc(Cl)cc2)c2ccccc2O1 (stereo not given)	94
COC(=O)CSc1nc(N2CCOCC2)c2c(c1C#N)CC(C)(C)SC2	100
CCOc1ccc(NC2=CC(=O)CC(C)(C)C2)cc1	99
N#CC1=C(N)N(c2sc3c(c2C#N)CCCCC3)C2=C(C(=O)CCC2)C1c1ccccc1 (stereo not given)	100
O=C(c1ccccc1)c1nnn(-c2ccccc2)c1Nc1ccccc1	100
COc1ccccc1NC1=NC(CO)(CO)CS1	103
c1ccc(CSc2ccc(-c3ccco3)nn2)cc1	97
CCOC(=O)Cc1csc(NC(=O)CC)n1	89
CC(C(=O)O)N1C(=O)CCC1=O (stereo not given)	100
COc1ccc(N2CCN(CCNC(=O)c3ccc(NC(=O)C4CCCO4)cc3)CC2)cc1 (stereo not given)	102
O=C(O)Cn1cc(/C=C2\C(=O)NN(c3ccccc3)C2=O)c2ccccc21	100
CSc1cccc(NC(=S)NCCN(C2CCCCC2)C2CCCC2)c1	104
CC[C@H]1OC(=O)[C@H](C)[C@@H](O[C@H]2C[C@@](C)(OC)[C@@H](O)[C@H](C)O2)[C@H](C)[C@@H](O[C@@H]2O[C@H](C)C[C@H](N(C)C)[C@H]2O)[C@](C)(O)C[C@@H](C)CN(C)[C@H](C)[C@@H](O)[C@]1(C)O	101
COc1ccc(CNC(=O)Cn2ccc3ccccc3c2=O)cc1	103
Cc1cccc(NC(=O)Cn2nnc3ccccc32)c1	101
CN1CCN(c2ncnc3scc(-c4ccc(F)cc4)c23)CC1	99
O=c1cc(CSc2ccc(Cl)cc2)[nH]c2[nH]n(-c3ccccc3)c(=O)c12	93
C=CCNC(=O)c1ccc(Br)s1	99
O=C(NCCC1=CCCCC1)c1cccnc1SCc1ccccc1Cl	111
CCOC(=O)c1sc(SCc2ccccc2)c2c1-c1sccc1N(C)S2(=O)=O	104
CCN(CC)C(=O)c1cc2c(s1)-c1c(C)cccc1OC2	101
CC1CN(C(=O)c2sc3ccccc3c2Cl)CC(C)O1 (stereo not given)	97
C/C(=C\C(=O)O)C12CC3CC(CC(C3)C1)C2	101
CCCC(=O)N1CCc2cc(OC)c(OC)cc2C1COc1ccc(OC)cc1 (stereo not given)	99
Cc1ccc(-n2nc(C)cc2NC(=O)c2ccc(Cl)cc2)cc1	104
O=C1c2ccccc2C(=O)N1CN(C(=O)C(F)(F)F)c1ccc(Cl)cc1	100
CN(C)CCCNc1ncnc2ccccc12	98
N#CCSc1nnc(-c2ncc(C(F)(F)F)cc2Cl)n1-c1ccc(Cl)cc1	99
Cc1nc(C2C(=O)c3ccc(O)c(O)c3OC2C(F)(F)F)cs1 (stereo not given)	100

Carrying on:
Molecule	VACV E9 pol inh
OCc1nc(-c2ccccc2)n2ccccc12	100
Oc1ccc(Cl)cc1C=Nc1ccc2oc(Cc3ccc(Cl)cc3)nc2c1	100
Cc1ccc2cnn(CC(=O)N3CC(C)CC(C)C3)c2c1 (stereo not given)	100
Oc1c(CN2CCOCC2)ccc2ccccc12	104
CC(C)C(=O)Nc1nc2ccccc2s1	100
Cc1ccc(NC(=O)CSC2=C(C#N)C(c3ccc(C)cc3)C3=C(CCCC3=O)N2)cc1 (stereo not given)	100
COc1ccc(CCN2CCC(Nc3nc4ccccc4n3Cc3ccc(F)cc3)CC2)cc1	92
CCOC(=O)c1cc2c(=O)n3ccccc3nc2n(C2CCCCC2)c1=NC(C)=O	104
CCn1c(SCC(=O)OC)nnc1-c1c[nH]c2ccccc12	97
CC(C)c1ccc(NC(=O)CSCc2csc3ccccc23)cc1	109
Cc1cccc(CN2CCC(CNC(=O)c3ccc4c(Cl)c5c(nc4c3)CCCC5)CC2)c1	101
Cc1c(CNC(=O)c2ccc(C(F)(F)F)cc2)sc2ccccc12	99
O=C(O)C(Cc1ccco1)P(=O)(O)CN1CCOCC1 (stereo not given)	100
NC(=O)NC(=S)NC(=O)c1ccccc1Cl	102
O=c1[nH]c2nonc2nc1/C=C(\O)c1ccccc1	93
COC(=O)c1ccccc1NC(=O)CSc1nnc(CSc2nc(C)cc(C)n2)o1	100
CC1(C)CC(=O)C(C(NC(=O)c2ccncc2)(C(F)(F)F)C(F)(F)F)=C(NCc2ccco2)C1	98
CCOC(=O)c1sc(SCCS(=O)(=O)c2ccc(Cl)cc2)c2c1CCCC2=O	104
